# ClpP mod: qHTS Assay for Activators of ClpP | purified B. subtilis ClpP, FRET peptide cleavage, 20 min | Potency, µM (highest dose often 57.5 µM), inactives show top-dose activity change, negative = active | 340,000 compounds, 1.9% hits | AID 651965, 2013; active = well fitted falling curve with a large enough effect; inconclusive = small, poorly fitted or top-dose-only effect; inactive = no such curve, though single readings can be large or run the other way; also: the source files actives as falling curves though it sought activators and does not explain the sign; nearly all actives have a fitted effect of over 65% in size; many hits overshoot -100%
# Target sequence (P80244 whole entry, looked up): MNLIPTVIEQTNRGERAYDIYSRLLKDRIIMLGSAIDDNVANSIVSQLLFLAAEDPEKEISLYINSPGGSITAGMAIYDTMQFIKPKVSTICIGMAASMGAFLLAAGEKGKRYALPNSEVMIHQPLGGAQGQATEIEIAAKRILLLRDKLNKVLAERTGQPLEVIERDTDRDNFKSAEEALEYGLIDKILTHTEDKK
#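 Buffer: 100 mM Tris/HCl pH8, 100 mM KCl, 0.05% low protease BSA, 2.5% glycerol, 0.01% Tween-20. ClpP 10 microg/mL final; 20 min RT; delta FRET normalized to ADEP and DMSO controls.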
# PINK1 expr mod: PINK1 expression modulation | 410,000 compounds, 0.2% hits | PINK1 immunofluorescence, high-content cytometry, 24 h | Potency, µM (highest dose often 76.6 µM), inactives show at the top dose activation (PINK1 increase), actives largely listed as activators; active = well fitted activation curve with a large enough effect; inconclusive = small, poorly fitted or top-dose-only effect; inactive = flat fitted curve, though single readings scatter; cell line not stated here;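 also: % of control where 0% means no effect; nearly all actives have a fitted effect of over 65% in size; a mitochondrial uncoupler was the plate control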
#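 Compound titrations (5 concentrations, 24 h) on a stable cell line; DMSO and CCCP controls. Endpoint: fixed-cell PINK1 immunofluorescence with mitochondrial, cell and nuclear markers, scanned by microplate cytometer.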
# An asterisk follows results filed as active; ? = inconclusive. Potency is read from the fitted curve at half-maximal effect.
SMILES,ClpP mod,PINK1 expr mod
CCNS(=O)(=O)c1cc(-c2nnc(Nc3cccc(C(F)(F)F)c3)c3ccccc23)ccc1C,-27%,1.7%
COC(=O)c1ccc2nc(-c3cccc(Br)c3)c(Cc3ccccc3C(F)(F)F)n2c1,-12%,4.5%
N#Cc1ccc(C(=O)Nc2ccc3c(c2)N(C2CCCC2)C(=O)c2ccccc2S3)cc1,-13%,-0.3%
COc1ccc(NC(=O)c2ccc3nc(CCc4ccccc4)oc3c2)c(OC)c1,234%,2.9%
COc1ccc(C2C(C(=O)Nc3ccccc3)=C(C)Nc3nc(SCC(=O)c4ccc(C)cc4)nn32)cc1 (stereo not given),-1.6%,5.8%
COCCCNC(=O)C1CCN(Cc2cc3ccccc3n2Cc2cccc(C)c2)CC1,-3.7%,1.4%
CCOC(=O)c1cc(OC(=O)c2ccc(Cl)cc2)n(-c2ccccc2)n1,-8.9%,-0.4%
COCc1cn(-c2nc3ccccc3s2)nn1,-15%,-0.5%
CCc1nnc2c(N3CCN(c4cccc(C(F)(F)F)c4)CC3)nc3ccccc3n12,-13%,1.4%
Cc1ccc(C)c(N2CCN(C(=O)C(CC(C)C)NS(=O)(=O)c3ccc4nc(C)sc4c3)CC2)c1 (stereo not given),2.5%,0.8%
Cc1ccc(C(=O)N2CCN(c3ccccc3F)CC2)cc1NC(=O)c1nsc2ccccc12,-18%,0.7%
Cc1ccc(Cn2cc(CN3CC(N4CCN(CCO)CC4)CS3(=O)=O)nn2)cc1 (stereo not given),-0.2%,-0.2%
O=c1n(Cc2ccc(Cl)cc2)nc2n1-c1ccccc1OC2,-0.1%,0.1%
COC(=O)[C@]12CCCCC=C1N(Cc1ccc(Cl)cc1Cl)C(=O)[C@H](CC(=O)N1CCOCC1)C2,-3.1%,0.6%
N#CC(=Cc1ccc(O)c(O)c1)C(=O)NCc1ccccc1,-4.6%,0.2%
CCCC(=O)N(c1ccc2oc(-c3ccccc3)c(C(=O)OCC)c2c1)S(=O)(=O)c1ccc(C)cc1,4.2%,4.9%
COc1ccc(NC(=O)CN2C(=O)CSc3ccc(S(=O)(=O)N(C)C)cc32)cc1OC,0.5%,-0.4%
COc1ccc(NC(=O)C(C)N(c2ccccc2)S(C)(=O)=O)cc1 (stereo not given),-0.9%,1.0%
COc1ccc(CCNC(=O)c2cc3sccc3n2Cc2ccc(Cl)cc2)cc1OC,-25%,0.0%
CCOc1ccc(Nc2sc(C(=O)c3ccc4c(c3)OCO4)c(N)c2S(=O)(=O)c2ccc(C)cc2)cc1,-3.0%,-0.5%
CC1=C(C(=O)Nc2ccc(C)cc2C)C(c2ccc(O)cc2)n2nc(SCC(=O)c3ccc(C)cc3)nc2N1 (stereo not given),-2.9%,5.1%
CCOc1ccc(OCC(=O)NCCS(=O)(=O)N2CCN(c3cccc(Cl)c3)CC2)cc1,-1.4%,3.6%
COCCn1c(C)cc(O)c(C(c2cccc(F)c2)N2CCN(c3ccccc3)CC2)c1=O (stereo not given),0.4%,0.5%
CC1=C(C(N)=O)C(c2ccc(C)cc2)n2nc(SCc3ccccc3F)nc2N1 (stereo not given),-3.5%,0.9%
CC(C)(C)OC(=O)N1CCC(c2c(C(=O)N3CCCCC3)cnn2-c2ccccc2Cl)CC1,0.3%,-1.4%
Cc1cc(F)ccc1NC(=O)C1CCCN(C(=O)c2cnn(-c3ccccc3)c2-n2cccc2)C1 (stereo not given),-2.2%,1.2%
O=C(c1ccccc1Cl)N1CCN(CCc2ccccn2)CC1,-3.1%,0.5%
CCS(=O)(=O)c1ncc(Cl)c(C(=O)Nc2c(C(=O)Nc3cccc(C)c3)oc3ccccc23)n1,-7.0%,1.2%
Cc1ccc(C(=O)c2oc3ccccc3c2NC(=O)Cc2ccccc2)cc1,?,8.0%
COc1cccc(-n2cc(C(=O)NCc3ccccc3OC)c3ccccc3c2=O)c1,-12%,-1.5%
CCOc1ccc(NC(=O)CSC2=Nc3ccccc3C3=NC(CC(=O)NCc4ccco4)C(=O)N23)cc1 (stereo not given),-3.4%,1.0%
CCOc1ccc(Nc2nc(-c3cccc(Cl)c3)c3c(n2)-c2ccccc2OC3)cc1,0.3%,0.6%
O=C(CN1C(=O)c2cccnc2Oc2ccc(Cl)cc21)NCCCN1CCCCC1,-4.0%,-1.4%
O=C(CN1C(=O)COc2ccc(S(=O)(=O)N3CCCCCC3)cc21)NCc1ccc(Cl)cc1,0.1%,1.6%
Cc1ccc2c(c1)C(c1ccccc1)N(C(=O)c1ccc(S(=O)(=O)N3CCCC3)cc1)CC(=O)N2 (stereo not given),-2.4%,-1.0%
COc1ccc([C@H]2CC(=O)C[C@@H](CCn3ccnn3)O2)cc1,-2.3%,0.2%
COc1ccc(N2CCN(C(=O)c3ccc4c(c3)N(Cc3cccc(Cl)c3)C(=O)c3ccccc3S4(=O)=O)CC2)cc1,1.5%,6.0%
Cc1cc(C)c(NC(=O)Cn2nnc(S(=O)(=O)c3ccc(C)c(C)c3)c2N)c(C)c1,-11%,5.6%
Cc1ccc(-c2cc3c(n2-c2ccc(F)cc2)CC(C)(C)CC3=O)cc1,-12%,-1.7%
Cc1ccc(C)c(NC(=O)C(C)N(c2ccccc2)S(C)(=O)=O)c1 (stereo not given),-2.3%,0.4%
Cc1ccccc1NS(=O)(=O)c1ccc2[nH]cc(C(=O)NC(C)c3ccccc3)c(=O)c2c1 (stereo not given),-22%,2.1%
Cc1ccc(Sc2ccc(N3CCCC(C(=O)Nc4ccc(F)cc4)C3)nn2)cc1 (stereo not given),-25%,2.0%
O=C(CSc1nnc(-c2ccccc2)c(-c2ccccc2)n1)NCCc1ccccc1,-0.8%,-0.6%
O=C(CSc1nc(=O)n(CCN2CCOCC2)c2c1CCC2)Nc1cccc(Cl)c1,-0.2%,-0.6%
O=S1(=O)CC(N2CCCC2)CN1Cc1cn(Cc2cccc(C(F)(F)F)c2)nn1 (stereo not given),-0.2%,-0.7%
CCOC(=O)c1c(NC(=O)/C=C/c2ccc(OC)c(OC)c2)sc(C(C)=O)c1C,-6.8%,0.0%
CN(Cc1ccccc1)c1nc(-c2ccc(F)cc2)cc(C(F)(F)F)n1,5.0%,1.1%
CC1=C(c2ccc(C)c(C)c2)S(=O)(=O)N=C1N1CCN(c2cccc(C)c2)C(C)C1 (stereo not given),-1.7%,-0.1%
COc1ccc(NC(=O)Cc2ccc(NC(=O)N3CCCCc4ccccc43)cc2)c(OC)c1,0.9%,0.2%
Cc1cccc(C)c1-n1nnnc1C1(C)CCC(=O)N1Cc1ccco1 (stereo not given),-0.4%,-0.6%

# Next part.
SMILES,ClpP mod,PINK1 expr mod
Cc1ccc(OCc2ccc(-c3nc(C#N)c(NCc4ccccc4Cl)o3)o2)cc1,25µM*,6.6%
COc1ccc(NC(=O)Cn2cc(S(=O)(=O)Cc3ccc(F)cc3)c3ccccc32)cc1OC,2.8%,0.8%
Cc1ccc(CN2C(=O)C3(c4ccccc42)N(c2cccc(F)c2)C(=O)CS3(=O)=O)cc1 (stereo not given),0.0%,-4.5%
CCc1ccc(OCC2c3cc(OC)c(OC)cc3CCN2C(=O)Cc2ccc(OC)c(OC)c2)cc1 (stereo not given),-0.7%,-4.3%
CC(=O)c1ccc(N2CCN(C(=O)c3cc4ccc5cccnc5c4[nH]3)CC2)cc1,-21%,-2.2%
CC(=O)c1ccc(N2CCN(C(=O)c3cc(S(=O)(=O)N4CCCCCC4)cn3C)CC2)cc1,-17%,0.8%
COc1ccccc1CNC(=O)c1cc(S(=O)(=O)N2CCCC(C)C2)cn1C (stereo not given),0.2%,0.7%
COc1ccc(-c2cc(=O)n3[nH]cnc3n2)cc1,-2.4%,0.4%
Cc1cccc(OC(=O)c2snnc2C)c1,1.2%,2.1%
Cc1ccccc1NC(=O)c1ccc(F)c(S(=O)(=O)NC2CCCC2)c1,3.4%,0.2%
COc1ccc(CNc2ncnc3c2c(-c2ccccc2)cn3-c2ccc(C)c(Cl)c2)cc1,?,0.4%
CCC1CN(C(=O)C2CCN(S(=O)(=O)c3c(C)noc3/C=C/c3ccccc3F)CC2)c2cc(C)ccc2O1 (stereo not given),4.0%,-0.1%
Cc1cccn2c3c(c(=O)nc12)C(c1ccc(F)cc1)CC(=O)N3 (stereo not given),-5.7%,7.2%
Cc1cc(C)n2c(Nc3c(C)cccc3C)c(-c3ccccn3)nc2n1,-2.2%,4.1%
Cc1c(C)c(C)c(/C=C/c2ccnc3ccccc23)c(C)c1C,-7.0%,-0.3%
Cc1c(CCNC(=O)Cc2ccc(F)cc2)sc2nc(-c3ccc(F)cc3)nn12,-1.2%,-2.2%
Cc1ccccc1CCNC(=O)c1ccc2c(c1)c(C)c(C)n2C,-21%,1.2%
Cc1ccc(SCCNC(=O)CN(c2cccc(C)c2C)S(C)(=O)=O)cc1,-2.0%,1.0%
Cc1c(C(=O)N(Cc2cccc(Cl)c2)Cc2ccco2)oc2ccccc12,-1.9%,1.3%
O=C(COc1ccccc1F)Nc1nnc(S(=O)(=O)N2CCCCCC2)s1,-2.9%,0.3%

# Taken from above (twelve entries):
SMILES,ClpP mod,PINK1 expr mod
COc1ccc(NC(=O)CN2C(=O)CSc3ccc(S(=O)(=O)N(C)C)cc32)cc1OC,0.5%,-0.4%
COc1ccc(NC(=O)C(C)N(c2ccccc2)S(C)(=O)=O)cc1 (stereo not given),-0.9%,1.0%
COc1ccc(CCNC(=O)c2cc3sccc3n2Cc2ccc(Cl)cc2)cc1OC,-25%,0.0%
CCOc1ccc(Nc2sc(C(=O)c3ccc4c(c3)OCO4)c(N)c2S(=O)(=O)c2ccc(C)cc2)cc1,-3.0%,-0.5%
CC1=C(C(=O)Nc2ccc(C)cc2C)C(c2ccc(O)cc2)n2nc(SCC(=O)c3ccc(C)cc3)nc2N1 (stereo not given),-2.9%,5.1%
CCOc1ccc(OCC(=O)NCCS(=O)(=O)N2CCN(c3cccc(Cl)c3)CC2)cc1,-1.4%,3.6%
COCCn1c(C)cc(O)c(C(c2cccc(F)c2)N2CCN(c3ccccc3)CC2)c1=O (stereo not given),0.4%,0.5%
CC1=C(C(N)=O)C(c2ccc(C)cc2)n2nc(SCc3ccccc3F)nc2N1 (stereo not given),-3.5%,0.9%
CC(C)(C)OC(=O)N1CCC(c2c(C(=O)N3CCCCC3)cnn2-c2ccccc2Cl)CC1,0.3%,-1.4%
Cc1cc(F)ccc1NC(=O)C1CCCN(C(=O)c2cnn(-c3ccccc3)c2-n2cccc2)C1 (stereo not given),-2.2%,1.2%
O=C(c1ccccc1Cl)N1CCN(CCc2ccccn2)CC1,-3.1%,0.5%
CCS(=O)(=O)c1ncc(Cl)c(C(=O)Nc2c(C(=O)Nc3cccc(C)c3)oc3ccccc23)n1,-7.0%,1.2%

# (more compounds)
SMILES,ClpP mod,PINK1 expr mod
Cc1ccc(CCNC(=O)C(NS(=O)(=O)c2ccc3c(c2)oc(=O)n3C)C(C)C)cc1 (stereo not given),-1.6%,0.8%
Cc1cccc(C)c1NS(=O)(=O)c1ccc(NS(=O)(=O)c2ccc3c(c2)OCCO3)cc1,0.1%,2.6%
CCCNC(=O)N1CCN(S(=O)(=O)c2ccc3c(ccn3C)c2)CC1,0.6%,-1.3%
CCOc1ccccc1CNC(=O)CCc1c(C)nn(-c2ccc(N3CCCC3)nn2)c1C,-1.7%,2.5%
CCn1cc(C(=O)N2CCN(c3cccc(C)c3C)CC2)c2cc(OC)c(OC)cc2c1=O,-9.6%,2.9%
Cc1ccc2nc(Cl)c3cc(C(=O)N4CCCC(C)C4)sc3c2c1 (stereo not given),-1.6%,3.4%
CCc1nn(CC(=O)NCc2ccccc2)c(=O)c2cccn12,1.0%,-0.8%
CCc1ccc(OCC(=O)Nc2cc(-c3nc4cc(C)ccc4o3)ccc2C)cc1,4µM*,?
CCc1ccc2c(c1)c(=O)c(C(=O)c1ccc(C)cc1)cn2CC(=O)Nc1ccc2c(c1)OCCO2,-1.5%,4.9%
Cc1ccc(C)c(N2CCN(c3ncnc4onc(C)c34)CC2)c1,1.3%,-4.3%
COc1ccccc1NC(=O)Cn1c(=O)n(Cc2nc(-c3ccccc3)no2)c(=O)c2ccccc21,-7.0%,0.2%
CCOCCOC(=O)c1ccc2c(c1)N(Cc1ccccc1C#N)C(=O)c1ccccc1S2(=O)=O,-2.9%,0.3%
Cc1cc2nc(-c3nnnn3-c3c(C)cccc3C)c(=O)[nH]c2cc1C,-13%,0.3%
COCCNC(=O)CSc1nc(-c2ccccc2)[nH]c1-c1ccc(OC)cc1,-29%,2.5%
COc1ccc(OCc2nc3ccccc3n2C(C)c2ccccc2)cc1 (stereo not given),-24%,2.7%
COc1cc2cc(CNc3ccc(C)cc3)c(=O)n(CC(=O)Nc3ccc(C(C)C)cc3)c2cc1OC,3.7%,13%
Cc1ccc(OCC(=O)Nc2c(Cl)ccc3nsnc23)cc1C,3.7%,-0.5%
CCCCOc1ccc(S(=O)(=O)n2nc(C)c(S(=O)(=O)N3CCC(C)CC3)c2C)cc1,0.1%,0.2%
CCOc1cc(C(=O)Nc2nnc3n2CCS3)cc(OCC)c1OCC,4.1%,-3.4%
CC1=C(c2ccc(C)cc2)S(=O)(=O)N=C1N1CCN(c2ccccc2)CC1,2.8%,-0.9%
Cc1ccc(N2CCN(C(=O)CCS(=O)(=O)c3cc4c(cc3Cl)NC(=O)CO4)CC2)c(C)c1,1.8%,18%
CCOc1ccc(-c2cc(OC(=O)c3ccc(F)cc3)c3c(C)oc(C)c3c(=O)c2)cc1,-2.5%,2.7%

# Screening data: PubChem BioAssay, National Center for Advancing Translational Sciences (NCATS)

# Not all compounds are listed (hit frequency here may not be typical).
